# HCMV NEC inh: inhibitors of HCMV UL50-UL53 interaction, biochemical, HTRF. normalized percent inhibition. inhibition, % (test concentration not listed). AID 1918969, 2023. 190,000 compounds, 0.15% hits. HCMV UL50-UL53 nuclear egress complex (human cytomegalovirus);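 active = both replicates at 50% or more, plus weaker picks with an unusually low signal ratio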;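 note: stock transfer was 100 nL into about 20 µL; 0% = negative control wells and 100% = wells with untagged competitor protein; inactives centre near -12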
# The depositor's hits bear a star; & = joins results of further samples. This is a subset; the hit share may differ from the screen's.
Structure | HCMV NEC inh
CCC(=O)c1c[nH]c(C(=O)NCc2cccc(C(F)(F)F)c2)c1 | -1
CC1(C(=O)NC2CCCCCC2)CCC(=O)N1CCC1=CCCCC1 (centres undefined) | 8
O=C(OCc1nc2ccccc2s1)c1cccs1 | -24
Cc1ccc(NCC(O)COc2ccc(OCc3ccccc3)cc2)cc1 (centres undefined) | 5
O=C(CC(NCC1CCCO1)C(=O)O)Nc1cccc(Cl)c1Cl (centres undefined) | 2
N[C@@H](Cc1ccc(O)c([N+](=O)[O-])c1)C(=O)O | -9&-9
Cc1cn(-c2cc(NC(=O)c3ccc(C)c(Nc4nccc(-c5cccnc5)n4)c3)cc(C(F)(F)F)c2)cn1 | -52&-18&-11&-8
Cc1ccc(C(=O)C(C)Sc2nc3ccccc3o2)cc1 (centres undefined) | -8
CC(=O)Oc1cccc2c1C(=O)c1c(OC(C)=O)cc(C(=O)O)cc1C2=O | -138
C1=CCC(CN2CCC(N3CCCC3)CC2)CC1 (centres undefined) | -11
Cc1ccc(/C=C2/SC(=S)N(c3ccc(S(N)(=O)=O)cc3)C2=O)o1 | -14
CCOc1ccc(OCC)c(S(=O)(=O)N(C)C2CCCCC2)c1 | -8
CC(C)CC1C(C#N)=C(N)OC2=C1C(=O)CCC2 (centres undefined) | -7
COC(=O)c1ccc(Cl)c(N)c1 | -9
O=Nc1cc(CN2CCOCC2)c(O)c2ncccc12 | 21&19

# Compounds shown so far that have a halogen (4):
Structure | HCMV NEC inh
CCC(=O)c1c[nH]c(C(=O)NCc2cccc(C(F)(F)F)c2)c1 | -1
O=C(CC(NCC1CCCO1)C(=O)O)Nc1cccc(Cl)c1Cl (centres undefined) | 2
Cc1cn(-c2cc(NC(=O)c3ccc(C)c(Nc4nccc(-c5cccnc5)n4)c3)cc(C(F)(F)F)c2)cn1 | -52&-18&-11&-8
COC(=O)c1ccc(Cl)c(N)c1 | -9

# The list continues:
Structure | HCMV NEC inh
CC(C)(Oc1ccc(Cl)cc1)C(=O)OCCOC(=O)c1cccnc1 | -4
O=C1NC(=O)C(=Cc2ccc3nccc(-c4ccncc4)c3c2)S1 | -41
Cc1ccc2cc(CCNC(=O)/C=C\c3ccc4c(c3)OCO4)c(=O)[nH]c2c1 | -13
Cc1nc2ccccc2n1CC(N)=O | 8
COc1ccc(S(=O)(=O)N2CCc3ccccc32)cc1C(=O)O | 5
O=C(Nc1ccc(-c2cn[nH]c2)cc1)C1COc2ccccc2O1 (centres undefined) | -13
Cc1ccc(S(=O)(=O)c2nc(C)oc2N(C)C)cc1 | 10
C=CCc1ccccc1OCC(O)CN1CCN(c2ccc(OC)cc2)CC1 (centres undefined) | -3
COc1ccccc1NC(=O)c1ccc(S(=O)(=O)N(C)C)cc1 | -15
Cc1ccc(C(=O)Nc2cccc(C(F)(F)F)c2)cc1Nc1cnccn1 | -11
O=C(Cc1ccccc1)NCCCc1nc2ccccc2[nH]1 | -6
CC(=O)Nc1cccc(NC(=O)c2c(F)c(F)c(F)c(F)c2F)c1 | -3
CCc1nc(CNc2cc(C(=O)N[C@H](C)c3ccc(OC)cc3)cc(S(=O)(=O)N(C)C)c2)c(C)[nH]1 | 3
CCN(CC)Cc1cc(N=O)c2cccnc2c1O | 32&26
O=C(Oc1ccc(C=Nc2cccc(Br)c2)cc1)c1ccncc1 | -7

# Overlap with the part before: 3 compounds, followed by the next part.
Structure | HCMV NEC inh
CCc1nc(CNc2cc(C(=O)N[C@H](C)c3ccc(OC)cc3)cc(S(=O)(=O)N(C)C)c2)c(C)[nH]1 | 3
CCN(CC)Cc1cc(N=O)c2cccnc2c1O | 32&26
O=C(Oc1ccc(C=Nc2cccc(Br)c2)cc1)c1ccncc1 | -7
O=C(NCc1cccnc1)c1cccc2ccccc12 | -2
CCN(CC)Cc1cc(C(C)C)c(O)c(C(C)C)c1 | -5
CCCCCCCCCCCCCCCC(=O)OC[C@H](COP(=O)([O-])OCC[N+](C)(C)C)OC(=O)CCCCCCCC(=O)O | -23&-23
O=C(O)CCCc1nc(-c2cccc([N+](=O)[O-])c2)no1 | -105
COc1cccc(C2CC(=O)Nc3sc4c(C)c(C#N)c(N)nc4c32)c1 (centres undefined) | 12
CN1C(=O)C(c2c[nH]c3ccccc23)=C(c2c[nH]c3ccccc23)C1=O | -27&-2&-2
O=C(O)c1ccc(OC(F)(F)F)cc1 | 13&7
CC/C=C\C/C=C\C/C=C\C/C=C\CCCCC(=O)OC | -17&-17
CC1(C)C(C=C(Cl)Cl)C1C(=O)NC1CCS(=O)(=O)C1 (centres undefined) | 11
CC(C(=O)O)c1ccc(C(=O)c2ccccc2)s1 (centres undefined) | -54
CN(C)c1ccc(/C=C2\SC(=O)NC2=O)cc1 | -18
O=C(Nc1ccc(C#Cc2ccccc2)cc1)C(F)(F)F | -7
Oc1ccc(-c2[nH]ncc2Oc2ccccc2)c(O)c1 | -8
COc1ccc2c(c1)sc(=NC(=O)C1COc3ccccc3O1)n2C (centres undefined) | -3
O=C(O)COc1ccc(C(=O)c2cccs2)c(Cl)c1Cl | -28&-28
CN(C)C(=S)SCN1CCCCCC1=O | 10&10
COc1ccc(/C=C2\SC(=S)N(c3ccc(O)cc3)C2=O)cc1 | -20
CCCN1CCCCC1C(=O)Nc1c(C)cccc1C (centres undefined) | -56
CC(NC(=O)C(C)(C)C)C1CC2CCC1C2 (centres undefined) | 7
CNC(=O)C(Cc1c[nH]c2ccccc12)NC(=O)C(CC(=O)NO)CC(C)C (centres undefined) | -8
O=C(O)/C=C/C(=O)N1CCCC(C(F)(F)F)C1 (centres undefined) | 2
CC(=O)OCC(=O)C1CCC2C3CC=C4CC(O)CCC4(C)C3CCC12C (centres undefined) | -2
CCCCCCCCCCCCC/C=C/[C@@H](O)[C@@H](N)CO | -8&-8&-6
O=C(Nc1ccncc1)Nc1c(Cl)cc(Cl)cc1Cl | 7
COc1ccc(Nc2nccc(NCCO)n2)cc1 | -2&-18&-18
CCc1ccc(N(CC)c2ncnc3nc[nH]c23)cc1 | -15
CN(C)CCC(O)c1ccccc1 (centres undefined) | -14
O=S(=O)(N=S(N1CCCCC1)N1CCCCC1)c1ccccc1 | 4
Cc1cn(-c2cc(C(=O)Nc3ccc(C)c(NC(=O)N4CCNC4=O)c3)cc(C(F)(F)F)c2)cn1 | -18
CNC(=O)[C@@H](Cc1ccccc1)N(C)C(=O)[C@@H](Cc1ccc2ccccc2c1)N(C)C(=O)/C=C/CC(C)(C)N | -7
N=C(N)SCCc1cccc(CCSC(=N)N)c1 | -10&-10
CC(CCc1ccccc1)NC(=O)CCn1c(=O)sc2ccccc21 (centres undefined) | 6
COc1cc(N)c(Cl)cc1C(=O)CCC1CCN(CCNS(C)(=O)=O)CC1 | -3
O=c1c(-c2ccccn2)coc2cc(O)ccc12 | -17
N#Cc1c(N)nc(SCc2ccccc2)c(C#N)c1-c1ccccc1 | -12
CC(C)(C)NCC(O)COc1ccc(Br)cc1 (centres undefined) | 0
O=C(Cn1cncn1)c1ccc(Cl)cc1 | -1
FC(F)(F)c1cccc(Nc2ncnc3c2cnn3-c2ccccc2)c1 | 1
CCOc1ccccc1NC(=O)CN1C(=O)CSC(C)C1=O (centres undefined) | -4
O=C1c2ccccc2-c2nc3nnnn3nc21 | 103*
O=C(Nc1cccc(-c2cncnc2)c1)c1ccc2c(c1)OCO2 | -16
CC(C)CN1CC(OCc2cccc(F)c2)CN(C(=O)c2cccc(N3CCNC3=O)c2)CC1=O (centres undefined) | 7
CC(N)=NCCCC[C@H](N)C(=O)O | -10
CCCc1cc(=O)oc2c(CN3CCCC3)c(O)ccc12 | -2
Cc1cc(C(=O)Sc2cccc(Br)c2)nn1C(C)(C)C | 4
COc1cc(-c2ccc(N=Nc3ccc4c(S(=O)(=O)O)cc(S(=O)(=O)O)c(N)c4c3O)c(OC)c2)ccc1N=Nc1ccc2c(S(=O)(=O)O)cc(S(=O)(=O)O)c(N)c2c1O | -86
O=C(Nc1nnc(-c2ccc(Cl)cc2)s1)C1CCCCC1 | 0
O=C1CCCN2N=C(SCC(=O)N3CCCc4ccccc43)SC2=N1 | -9
O=C(O)CNC(=O)COc1ccc(Oc2ccccc2)cc1 | -11
Cc1ccc(C2=N/C(=C\c3cccs3)C(=O)O2)cc1 | -11
Cc1nc(N2CCOCC2)c2c(C)c(C(=O)Nc3cccc(Cl)c3C)sc2n1 | -13
CSc1ccccc1C(=O)Nc1cc(C)cc(C)c1 | 3
C=CCN1C(=O)C(C(=O)Nc2ccccc2)C2CC1(C)Oc1ccccc12 (centres undefined) | -14
N=C(N)SC12CC3CC(CC(C3)C1)C2 | 6
O=C(C1COc2ccccc2O1)N1CCNCC1 (centres undefined) | -8
CN(C)CCNc1nc2ccccc2n1C | -1
CCOc1cc(/C=C2/SC(=Nc3ccccc3F)NC2=O)ccc1O | 7
CC1SCC(=O)N(CC(=O)NCCc2ccccc2)C1=O (centres undefined) | -6
COc1ccc(NC(c2ccccc2)C(F)(F)CO)cc1 (centres undefined) | -13
Cc1cc(-c2ccc(N=Nc3ccc4c(S(=O)(=O)O)cc(S(=O)(=O)O)c(N)c4c3O)c(C)c2)ccc1N=Nc1ccc2c(S(=O)(=O)O)cc(S(=O)(=O)O)c(N)c2c1O | -35

# Continuation:
SMILES	HCMV NEC inh
CCOc1ccc(C(=O)Nc2sccc2C#N)cc1	-6
CCC(C)C(=O)OC1CC(C)C=C2C=CC(C)C(CCC3CC(O)CC(=O)O3)[C@H]21 (some centres undefined)	-3
C=CCC1C=C(C)CC(C)CC(OC)C2O[C@@](O)(C(=O)C(=O)N3CCCCC3C(=O)OC(C(C)=CC3CCC(O)C(OC)C3)C(C)C(O)CC1=O)C(C)CC2OC (some centres undefined)	-42
OC1CO[C@H]2C(O)CO[C@H]12 (some centres undefined)	-16
Cc1ccc(Cn2nc(C)cc2C(=O)Sc2ccccc2)cc1	-19
Cc1ccc(C(=O)Nc2nnc(SCc3ccccc3)s2)cc1	-13
c1ccc2sc(N3CCN(Cc4ccc5c(c4)OCO5)CC3)nc2c1	-8
Cc1cccc(NC(=O)CSC2=C(C#N)C(c3ccccc3C)C3=C(CCCC3=O)N2)c1 (centres undefined)	-8
COc1ccc(C(C)=O)c(OC2(C(=O)O)CCSCC2)c1	-3
Cc1cc(O)c(C(=O)Cc2ccccn2)c(O)c1	-21
COc1ccccc1Oc1ncnc2scc(-c3ccc(F)cc3)c12	7
O=C(Cc1ccccc1)c1c[nH]c(C(=O)NCCc2ccccn2)c1	2
O=C1NCCc2[nH]c(-c3ccncc3)cc21	-4&0
Cc1ncsc1CCn1nc(C(=O)NC2CC2)c2c1CCN(C(=O)C1Cc3ccccc3O1)C2 (centres undefined)	6
Cc1cc(-c2ccc(S(=O)(=O)N3CCc4ccccc43)cc2)on1	-9
N#CC1=C(SCC(=O)N(c2ccccc2)c2ccccc2)NC(=O)CC1c1ccccc1F (centres undefined)	-14
COCC(=O)NCCc1nc2ccccc2n1C	-11
BrC1C(Br)C(Br)C(Br)C(Br)C1Br (centres undefined)	-8
CC(C)(C)c1ccc(OCc2nc3ccccc3[nH]2)cc1	10&-2
CNC(=O)CC1Sc2ccc(C(F)(F)F)cc2NC1=O (centres undefined)	-9
CCOc1cccc(NC(=O)c2ccc(Br)cc2F)c1	-8
CC(C)NCC(O)COc1ccc2c(c1)CCC2 (centres undefined)	-17
COc1ccccc1CNC(=O)c1sc2nc[nH]c(=O)c2c1C	-21
CCN1C(=O)/C(=C\c2cc(C)n(-c3ccccc3)c2C)SC1=S	-12
Cc1ccnc(SCc2nc3ccc(Cl)cn3c2Br)n1	10&2
COc1cccc2c1C(=O)c1c(O)c3c(c(O)c1C2=O)C[C@@](O)(C(C)=O)C[C@@H]3OC1CC(N)C(O)C(C)O1 (some centres undefined)	-114
Cc1ccc(-n2c(SCC(=O)c3ccccc3)nc3[nH]ncc3c2=O)cc1Cl	-12
Oc1c(CN2CCOCC2)cc(-c2ccccc2)cc1CN1CCOCC1	-7
CSc1nnc(Nc2ccccc2)n1-c1ccccc1	-25
CCc1ccc(OCC(=O)Nc2cccc(Cl)c2)cc1	5
Cc1cc(=O)oc2cc(OCCOc3ccccc3)ccc12	11
O=S(=O)(/N=C(\Nc1ccc(O)cc1)c1ccccc1)c1ccccc1	4
Cc1ccc(/C=C2/SC(=Nc3ccc(O)cc3)NC2=O)o1	-17
CCN(CC)CCCCN1c2ccccc2Oc2ccc(Cl)cc21	-8&3
Cc1cc(OCc2cn3cccnc3n2)ccc1Cl	-2
O=C(Nc1nnc(SCC(=O)N2CCc3ccccc32)s1)c1ccccc1	-15
COc1ccc(-c2csc(NC(=O)c3cccs3)n2)cc1	-20
CCCn1cc(SCC(=O)Nc2nccs2)c2ccccc21	-12
CCCc1cc2c(=O)c(-c3ccccn3)c(C)oc2cc1O	3
O=C(CSc1ccc2nnc(-c3ccccc3)n2n1)N1CCCCC1	-6
NC(=O)c1cc(N)cc(C(N)=O)c1	-16
COc1cccc(C(=O)NCCSc2c[nH]c3ccccc23)c1	6
CC(=O)Oc1cc2sc(C)nc2c2sccc12	-5
Cc1nsc(NC(=O)NCc2ccccc2-n2ccnc2C)n1	34&34
O=C(CC1CCCCCC1)N1CCC(n2cc(C3CC3)nn2)CC1	-22
NC(N)=NCCNS(=O)(=O)c1cccc2cnccc12	-29&-20
Cc1ccc(NC(=O)c2cccc(N(C)C)c2)cc1NC(=O)c1ccc(O)cc1	-8&5&7

# Part of the list above, reformatted.
Cc1cc(=O)oc2cc(OCCOc3ccccc3)ccc12
  HCMV NEC inh = 11

O=S(=O)(/N=C(\Nc1ccc(O)cc1)c1ccccc1)c1ccccc1
  HCMV NEC inh = 4

Cc1ccc(/C=C2/SC(=Nc3ccc(O)cc3)NC2=O)o1
  HCMV NEC inh = -17

CCN(CC)CCCCN1c2ccccc2Oc2ccc(Cl)cc21
  HCMV NEC inh = -8&3
